RanGTP-Imp inh: inhibitors of RanGTP-importin-beta interaction, primary screen, biochemical, FRET, CFP-Ran, YFP-importin-beta, homogeneous. hit rate 1.1% among 300,000. cell-free CFP-Ran/YFP-importin-beta FRET ratio. inhibition, % (test concentration not listed);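 active means most replicates above 15%; inconclusive means exactly half above 15%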;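 further: 0% = DMSO wells and 100% = Ran loaded with GDP instead of GTP; wells of about 40 µL received 100 nL stock; the first replicate is given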
AF4-AF9 inh: MLL-AF4/AF9 protein interaction inhibition; AlphaScreen, biotin-AF4 peptide binding to FLAG-AF9; inhibition, % at 10 µM; hit rate 0.47% among 350,000;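 active means every replicate reaching a set inhibition limit, whatever the replicate mean, cut at about 25% in these data; inconclusive means mean inhibition reaches that limit but some replicates miss it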;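 further: 0% = plate neutral control median and 100% = total signal loss; the record names both 10 and 1 µM as test concentration; the first replicate is given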
Target sequence (P42568 whole entry, looked up): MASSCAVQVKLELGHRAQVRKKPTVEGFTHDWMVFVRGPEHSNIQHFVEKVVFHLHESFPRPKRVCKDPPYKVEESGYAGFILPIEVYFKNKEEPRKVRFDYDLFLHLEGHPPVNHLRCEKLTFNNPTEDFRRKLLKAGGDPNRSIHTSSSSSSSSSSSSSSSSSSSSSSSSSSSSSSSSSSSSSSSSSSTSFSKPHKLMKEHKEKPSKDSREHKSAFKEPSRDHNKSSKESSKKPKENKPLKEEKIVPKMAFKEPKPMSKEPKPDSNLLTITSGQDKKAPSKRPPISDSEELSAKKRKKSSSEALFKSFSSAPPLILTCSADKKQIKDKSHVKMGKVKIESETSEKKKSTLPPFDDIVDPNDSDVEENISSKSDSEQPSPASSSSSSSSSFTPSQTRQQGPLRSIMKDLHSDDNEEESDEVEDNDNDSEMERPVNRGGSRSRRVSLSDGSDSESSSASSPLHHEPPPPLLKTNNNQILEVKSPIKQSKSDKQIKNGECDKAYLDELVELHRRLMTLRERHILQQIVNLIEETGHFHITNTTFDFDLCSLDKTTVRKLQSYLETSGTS
FGF22 binding: shifts melting point of recombinant human FGF22 | AID 651658 | calls only at 9.99 µM | Q9HCT0 | hit rate 1.5% among 340,000 | recombinant FGF22 thermal shift, SYPRO orange fluorescence; percent of sucrose octasulfate shift, DMSO zero;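 active means melting point raised past a set limit in the mean and every replicate; inconclusive means no clear call; three in four hits are not shown here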
Target sequence (Q9HCT0 whole entry, looked up): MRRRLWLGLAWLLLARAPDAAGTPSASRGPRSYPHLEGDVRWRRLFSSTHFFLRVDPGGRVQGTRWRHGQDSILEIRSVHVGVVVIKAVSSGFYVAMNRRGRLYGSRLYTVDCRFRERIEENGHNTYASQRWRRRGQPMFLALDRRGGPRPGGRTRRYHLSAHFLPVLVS
Vif A3G: inhibitors of Vif binding to APOBEC3G peptide, primary screen, biochemical, TR-FRET, GST-Vif 1-94, biotin-A3G peptide, dose response retest (AID 1117319). TR-FRET GST-Vif / biotin-A3G peptide binding; higher % means a stronger effect; test concentration not given here; strong numbers were not always called active. inhibition, %; hits with a dose series show IC50 in µM. hit rate 0.57% among 260,000;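 active means above the screen mean plus three standard deviations and confirmed in dose response; inconclusive means results disagree or hit not tested in dose response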;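 further: Vif residues 1-94 fused to GST binding biotinylated APOBEC3G peptide 110-148; 0% = full assay without inhibitor and 100% = GST in place of GST-Vif; retest series ran down from 100 µM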
Ecoli growth: inhibitors of Escherichia coli growth. OD600, 23 h; active compounds read low. OD600 absorbance (concentration not given with the values). hit rate 0.21% among 330,000. AID 1053175;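 active means OD600 absorbance below the run mean of sample wells minus 3.6 SD, in any replicate, cut at about 0.56 in these data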;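 further: stock transfer was 300 nL into about 60 µL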
HNF4A DNA FP: change in binding of human HNF4 alpha to DNA | P41235 | HNF4a-FITC DNA binding, fluorescence polarization, 1 h | activity change, % at 10 µM | hit rate 0.3% among 360,000; in the data active means activity change above about 30%, passing the limit was not always enough;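 further: controls were the assay level and a saturating level of protein; the project sought stronger binding though the title names inhibitors; some compounds called inactive have numbers as strong as hits; positive values seem to mean higher polarization but the record does not say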
UCH37 DUB inh: inhibitors of human deubiquitinating enzyme UCH37. AID 588478. purified proteasome/UCH37, Ub-AMC cleavage fluorescence. hit rate 0.33% among 330,000. inhibition, % (concentration not given with the values). Q9Y5K5;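 active means mean of two replicates above 20%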;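 further: 0% = compound-free wells with enzyme and 100% = wells lacking proteasome; stock transfer was 100 nL into about 20 µL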
Target sequence (Q9Y5K5 whole entry, looked up): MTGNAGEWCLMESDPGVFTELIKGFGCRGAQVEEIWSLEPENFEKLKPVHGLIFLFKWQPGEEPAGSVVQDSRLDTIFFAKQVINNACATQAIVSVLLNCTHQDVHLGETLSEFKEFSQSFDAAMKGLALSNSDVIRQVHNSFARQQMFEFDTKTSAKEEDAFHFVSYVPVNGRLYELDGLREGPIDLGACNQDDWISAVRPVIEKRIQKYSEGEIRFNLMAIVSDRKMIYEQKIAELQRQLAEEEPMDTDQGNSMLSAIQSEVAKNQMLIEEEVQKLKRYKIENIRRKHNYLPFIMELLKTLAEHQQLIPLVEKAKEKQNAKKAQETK
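Material: Human UCH37 enzyme supplied as purified proteasome complex | Schedule: 30 min preincubation with enzyme, 25 min cleavage at room temperature | Detection: AMC fluorescence 355/460 nm | Measure: % inhibition of Ub-AMC cleavage fluorescence | Controls: Wells without proteasome as full block, compound-free enzyme plus substrate as uninhibited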
An asterisk follows results filed as active; i = inactive; u = inconclusive; x = not tested or not shown; + = active, no number; & = joins results of further samples.

RanGTP-Imp inh | AF4-AF9 inh | FGF22 binding | Vif A3G | Ecoli growth | HNF4A DNA FP | UCH37 DUB inh | SMILES
x | 5.7 | i | x | x | 1.4 | x | CSc1ccccc1CNc1nc(NCC2CC2)nc2ccsc12
-1.5 | 8.0 | i | x | 0.69 | -3.1 | -96 | Cc1c(CCC(=O)N[C@@H](CCCNC(N)=O)C(=O)O)c(=O)oc2cc3oc4c(c3cc12)CCCC4
-1.0 | -2.8 | i | 5% | 0.69 | 1.4 | -3.0 | COc1ccc(Cl)cc1NC(=O)COC(=O)c1cc(NS(=O)(=O)c2cccs2)ccc1O
x | -0.9&-0.3 | i | x | x | -1.4 | x | COC(=O)C[C@H]1CC[C@@H](NC(=O)Nc2ccc(C(F)(F)F)cc2)[C@@H](CO)O1
-1.8 | x | x | 1% | 0.71 | 1.4 | 2.6 | O=c1c2cc3c(=O)n(CC4CCCO4)c(=O)c3cc2c(=O)n1CC1CCCO1 (stereo unspecified)
5.0 | -4.9 | i | -6% | 0.67 | -2.3 | 0.5 | Fc1ccc(CNCc2ccco2)cc1
u | x | x | 20% | 0.72 | -1.0 | 4.8 | O=C(NCc1ccccn1)c1cn(CCc2ccccc2)nn1
-3.1 | 2.2 | i | -2% | 0.68 | 3.5 | 2.5 | Cc1ccc(N2CC(C(=O)Nc3c(C)n(C)n(-c4ccccc4)c3=O)CC2=O)cc1 (stereo unspecified)
-2.1 | x | x | -3% | 0.7 | -0.5 | -1.3 | Cn1c(=O)cc(SCC(=O)N2CCCC2)c2ccc(Cl)cc21
1.3 | 1.6 | i | x | 0.66 | -4.0 | 4.6 | O=C(NC(=S)Nc1ccccc1[N+](=O)[O-])c1ccco1
-4.3 | x | x | -5% | 0.71 | 1.8 | 1.2 | N/C(=N\OC(=O)CCC1CCCCC1)c1cccnc1
1.8 | -1.3 | i | x | 0.7 | 0.2 | 1.4 | C=CCn1cc(C(=O)NCCOC)c(=O)c2cc(S(=O)(=O)N3CCCCCC3)ccc21
1.4 | -1.3 | i | -7% | 0.71 | -1.3 | 3.6 | CC(=O)c1cccc(NC(=O)C2(c3ccccc3)CC2(Cl)Cl)c1 (stereo unspecified)
-0.2 | x | x | x | 0.62 | 1.2 | 1.2 | CNC(=S)N1N=C(c2ccccc2)CC1c1ccc(OC)c(OC)c1 (stereo unspecified)
x | -1.6 | i | 1% | 0.68 | 4.5 | -4.1 | O=C(NN=Cc1ccc(O)cc1)C(=O)NN=Cc1ccc(O)cc1
-3.3 | -1.8 | i | x | 0.7 | 0.5 | 1.3 | O=C1OC(CCl)CN1Cc1c(Cl)cccc1Cl (stereo unspecified)
3.1 | 0.6 | i | -2% | 0.7 | -3.2 | -1.7 | CCN(CCN1CCCC1)C(=O)C1CCC(=O)N(CCCN2CCOCC2)C1 (stereo unspecified)
x | x | x | 6% | 0.71 | 2.7 | -0.1 | Cc1c(Cl)cnc(NC(=O)CSc2nnc3ccccn23)c1Cl
u | -2.8 | i | 1% | x | 3.1 | x | COc1ccc(CNc2ncnc3c2[nH]c2ccccc23)cc1
x | 1.7 | i | -3% | x | 1.2 | x | NC1=NC(=O)C(c2ccccc2)(c2ccccc2)S1
3.2 | 1.1 | i | x | x | -0.8 | 2.5 | Cc1cccc(NC(=O)c2nc[nH]c2C(=O)N[C@@H](C)C(=O)OC(C)(C)C)c1
4.7 | x | x | 21% | 0.57 | x | -2.8 | CC1(C)CC(=O)C(N=Nc2cc(S(=O)(=O)N3CCOCC3)ccc2Cl)=C(O)C1
-1.0 | x | x | 3% | x | 0.3 | x | CN(C)/C=N/c1cc(=O)[nH]c(=O)n1C
x | 0.4 | i | x | x | 4.1 | x | COc1ccc(C(=O)c2[nH]c(N)c(C(=O)NCCc3c[nH]c4ccccc34)c2-c2ccc(Cl)c(F)c2)cc1
8.4 | -1.3 | i | 2% | 0.64 | -1.2 | 1.6 | O=C(NC1CCCCC1)c1ccc(-c2ccc(Cl)cc2)o1
-4.2 | x | x | 3% | 0.71 | 0.1 | 3.6 | COc1ccccc1NC(=O)c1ccc(NC(=O)CSc2ncn[nH]2)cc1
0.8 | -12 | i | x | 0.68 | -0.9 | -0.2 | Cc1ccc(Cl)cc1N1CCN(C(=O)C2CCC(=O)N(C3CCCCCC3)C2)CC1 (stereo unspecified)
-2.9 | -6.2 | i | 4% | 0.71 | -7.1 | -0.8 | CCC(=O)n1nc(-c2cccnc2)nc1NCc1ccc(F)cc1
x | -1.7&2.5 | i | x | x | -2.0 | x | O=C(Cc1cccnc1)N[C@@H]1CC[C@H](CCn2cc(Cc3ccccc3)nn2)O[C@@H]1CO
1.2 | x | x | 24% | 0.71 | -0.3 | 2.4 | O=C(CSc1nnc(-c2cccnc2)s1)Nc1ccc(C(=O)O)cc1

As a short view, some entries already given:
RanGTP-Imp inh | AF4-AF9 inh | FGF22 binding | Vif A3G | Ecoli growth | HNF4A DNA FP | UCH37 DUB inh | SMILES
x | 5.7 | i | x | x | 1.4 | x | CSc1ccccc1CNc1nc(NCC2CC2)nc2ccsc12
-1.5 | 8.0 | i | x | 0.69 | -3.1 | -96 | Cc1c(CCC(=O)N[C@@H](CCCNC(N)=O)C(=O)O)c(=O)oc2cc3oc4c(c3cc12)CCCC4
-1.0 | -2.8 | i | 5% | 0.69 | 1.4 | -3.0 | COc1ccc(Cl)cc1NC(=O)COC(=O)c1cc(NS(=O)(=O)c2cccs2)ccc1O
x | -0.9&-0.3 | i | x | x | -1.4 | x | COC(=O)C[C@H]1CC[C@@H](NC(=O)Nc2ccc(C(F)(F)F)cc2)[C@@H](CO)O1

New compounds follow:
RanGTP-Imp inh | AF4-AF9 inh | FGF22 binding | Vif A3G | Ecoli growth | HNF4A DNA FP | UCH37 DUB inh | SMILES
-1.7 | x | x | 1% | 0.7 | 4.5 | 4.9 | CCn1cc([N+](=O)[O-])c(C(=O)Nc2ccn(Cc3ccccc3F)n2)n1
0.8 | -6.1 | i | x | 0.71 | -3.5 | -1.7 | O=C(NCCOc1ccc(F)cc1)C1CCC(=O)N(CCCN2CCOCC2)C1 (stereo unspecified)
u | -1.0 | i | x | 0.66 | -4.0 | 4.5 | COc1cc(S(=O)(=O)NCc2ccncc2)ccc1Br
-1.1 | 2.8 | i | x | 0.65 | -3.5 | 4.0 | CCOC(=O)c1cc(-c2ccccc2)n(CC2CC(c3ccc(OC)cc3)=NO2)n1 (stereo unspecified)
12 | -4.9 | i | -2% | 0.67 | 41 | -1.6 | COc1ccc(N=Cc2c(O)n(-c3cccc(C)n3)c(=O)c3ccccc23)c(OC)c1
9.8 | x | x | -4% | 0.7 | 2.7 | 1.3 | O=S(=O)(NCc1cc(-c2ccccc2)no1)c1ccc(Cl)cc1
x | -1.1 | i | x | x | 3.7 | x | Cc1cn([C@H]2C[C@H](O)[C@@H](CCC(=O)NCCc3cccs3)O2)c(=O)[nH]c1=O
-3.8 | 2.0 | i | -1% | x | -0.6 | 0.5 | CCCOc1ccc(N/C=C/C(=O)C(C)(C)C)cc1
0.1 | x | x | 3% | 0.7 | -2.2 | 6.9 | O=[N+]([O-])c1cccc(C(=Nc2ccc(Cl)cc2)NO)c1
x | -4.0 | i | -3% | 0.72 | -5.4 | 4.9 | CCc1cccc(C)c1NC(=O)CCCN1C(=O)CN(C)C1=O
x | -5.7 | i | x | x | 0.3 | x | CC1(C(=O)NS(=O)(=O)c2cccc(C#N)c2)CCN1C(=O)c1ccccc1CCc1ccccc1 (stereo unspecified)
3.2 | 0.2 | i | x | 0.67 | 2.3 | 3.7 | CC(=O)N1CCCc2cc(S(=O)(=O)N3CCCC(C(=O)NCc4ccc(C)cc4)C3)ccc21 (stereo unspecified)
7.7 | x | x | 12% | 0.72 | 1.2 | -1.2 | Cc1ccc(CNC(=O)C2C3C=CC(C3)C2C(=O)O)cc1 (stereo unspecified)
-0.4 | -0.8 | i | x | 0.71 | 4.1 | -111 | Cc1cc(OCC(=O)NCc2cccnc2)c2c(C)c(Cc3ccccc3)c(=O)oc2c1
-5.3 | 2.3 | i | x | 0.64 | 7.5 | -8.2 | O=C(NCc1csc(-c2cccs2)n1)C1CCC1
1.8 | x | x | x | 0.73 | 115 | 17 | O=C1NC(=S)S/C1=C/c1ccc(N2CCOCC2)o1
2.4 | x | x | -3% | x | 0.7 | x | N#C/C(=N\Nc1ccc(F)cc1)C(=N)N1CCCCC1
4.3 | 1.9 | i | 24% | 0.66 | -1.7 | 0.3 | COc1cccc(-c2nn(-c3ccccc3)cc2CN2CCCO2)c1
1.1 | -2.4 | i | 15% | 0.72 | -4.7 | 3.9 | Cc1cc(OCCCn2cnc3ccccc3c2=O)ccc1[N+](=O)[O-]
1.0 | x | x | -2% | 0.71 | x | 3.6 | C1CCN=C(NC23CC4CC(CC(C4)C2)C3)CC1
1.3 | -5.4 | i | -2% | 0.66 | 2.3 | 2.3 | CN(c1ccc(C(=O)Nc2ccc(F)cc2F)cc1)S(=O)(=O)c1ccccc1
-1.5 | x | x | -2% | 0.69 | 0.5 | 0.7 | CCOC(=O)CCCNC(=O)COC(=O)CCC(=O)c1ccc(F)cc1
0.9 | -5.8 | i | -3% | 0.68 | 3.0 | 6.3 | Cc1ccc(NC(=O)CSc2nc(O)c(Cc3ccccc3)c(=O)n2-c2ccccc2)cc1
2.4 | 1.1 | i | x | 0.7 | -3.6 | 6.1 | CN(C(=O)CSc1nnc(-c2ccccc2)n1C)C1CCS(=O)(=O)C1 (stereo unspecified)
u | 1.2 | i | 4% | 0.71 | 0.7 | 0.2 | CCN1CCN(CC(=O)Nc2ccc(S(=O)(=O)N3C(C)CCCC3C)cc2)CC1 (stereo unspecified)
1.8 | x | x | 12% | 0.76 | 0.7 | 2.5 | O=C(Nc1nnc(CC2=CCCCC2)s1)c1cccs1
u | 2.8 | i | 1% | x | -5.2 | x | C=C(C)C1CC=C(C)/C(=N/NC(=O)c2ccc(NC(=O)CC)cc2)C1 (stereo unspecified)
1.4 | -7.1 | i | x | 0.59 | 2.1 | i | Cc1ccc(C2N(C)C(=O)c3ccccc3N2C)cc1 (stereo unspecified)
4.6 | -5.0 | i | -5% | 0.7 | 3.9 | 6.6 | CC1Sc2ccc(S(=O)(=O)CCC(=O)Nc3ccccc3Cl)cc2NC1=O (stereo unspecified)
-3.6 | x | x | -5% | 0.73 | -2.1 | -2.0 | CCOC(=O)c1oc2ccc(CNCCO)c(Cl)c2c1C
-4.9 | -2.3 | + | -7% | 0.7 | -9.0 | 2.4 | Nc1nc(-c2cccnc2)nn1C(=O)c1ccc(F)cc1
-0.8 | x | x | 70% | 0.68 | -1.1 | -0.7 | CC(=O)NNC(=O)C(O)(c1ccccc1)c1ccccc1
-1.5 | -9.1 | i | x | 0.69 | 3.1 | 3.4 | COc1ccc(-c2onc(C)c2C)cc1S(=O)(=O)NCCc1ccco1
-3.4 | -1.9 | i | -2% | 0.71 | 3.6 | 0.4 | CC(NCC1COc2ccccc2O1)C(=O)NCc1ccccc1 (stereo unspecified)
-3.3 | x | x | 18% | x | 1.0 | x | C=CCOc1c(Br)cc(/C=N/O)cc1OCC
-2.7 | x | x | -6% | 0.74 | -2.1 | 3.3 | CCOC(=O)CSc1ncnc2c1nnn2-c1ccc(F)cc1
3.0 | 0.0 | i | x | 0.7 | 0.2 | 1.4 | O=C(CSc1nnc(COc2ccccc2)o1)N1CCCCC1
-0.7 | -2.0 | i | 4% | 0.69 | -0.1 | -1.5 | Cc1ccc(S(=O)(=O)N[C@@H](CO)C(=O)N[C@@H](Cc2ccc(O)cc2)C(=O)O)cc1
-1.9 | -0.6 | i | x | 0.63 | -0.8 | 6.4 | CCCCCC(=O)Nc1ncc2c(n1)CC(c1cccs1)CC2=O (stereo unspecified)

Screening results (PubChem BioAssay)

Only part of the results is shown. The share of hits here may be higher or lower than overall.
